MT1-MMP act inh: blockers of MT1-MMP proenzyme processing, primary screen, HT1080 RFP-PRO-GFP cells, GFP/RFP fluorescence | Matrix metalloproteinase-14 (Homo sapiens), P50281 | AID 651647, 2012 | GFP/RFP ratio change, % at 20 µM | 0.061% of 360,000 active | GFP/RFP ratio fluorescence, overnight; percent of plate control window, DMSO zero;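 active = GFP/RFP ratio change of at least 30% with cell ATP level not reduced by more than half and red fluorescence within 50% of control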; also: strong numbers were not always called active
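system = RFP-PRO-GFP reporter HT1080 cells | dosing = 20 µM single dose, 1% DMSO | timing = overnight cell settling, then overnight compound exposure, 37 °C, 5% CO2 | read-out basis = GFP/RFP fluorescence ratio | controls = DMSO and RFP-L50D-GFP cell wells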
PABP FP inh: PABP poly(A) RNA binding inhibitors, primary screen, biochemical, fluorescence polarization, uHTS. Polyadenylate-binding protein 1 (Homo sapiens), P11940. inhibition, % at 35 µM. 1% of 290,000 active. AID 2014, 2009;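 active = 50% or more with normal probe brightness, or confirmed in later tests; about a fifth of its hits are not listed in these tables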;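 also: calls also rest on retests at 20 µM and on dose response follow-up; controls were probe without protein and protein plus probe with vehicle; some compounds called inactive have numbers as strong as hits; many hits fall short of the cut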
eIF4H FP inh: human eIF4H binding inhibitors, primary screen, translation initiation inhibitor project, biochemical, uHTS, fluorescence polarization | 0.94% of 290,000 active | Eukaryotic translation initiation factor 4H (Homo sapiens), Q15056 | eIF4H fluorescence polarization binding assay | inhibition, % at 35 µM;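 active = 50% or more with normal probe brightness, or confirmed in later tests; about a fifth of its hits are not listed in these tables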;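 also: calls also rest on retests at 20 µM and on dose response follow-up; 0% = protein and probe with vehicle and 100% = probe without protein; strong numbers were not always called active; many hits fall short of the cut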
CSC inhib: cancer stem cell viability inhibitors, primary screen, luminescence; cancer stem cell-like cells viability; inhibition, % at 7.5 µM; 1.1% of 300,000 active;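 active = mean at 75% or more and at least half the replicates too; tested in HMLE shEcad cells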;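 also: 0% = median of negative and 100% = median of positive control wells; the first replicate is given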
UUG fidelity: modulators of yeast start codon fidelity, primary screen, whole organism, S. cerevisiae, single point, plate reader. S. cerevisiae UUG-firefly luciferase reporter, luminescence/redox ratio. activity score, % at 18.7 µM. 0.13% of 350,000 active. AID 602363, 2012;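 active = replicate mean at a twofold rise or more, about +100% in these data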;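 also: firefly luciferase made from a UUG start codon reports start codon fidelity; reporter light over untreated wells divided by growth signal over untreated wells; some hits fall short of that in this replicate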
HIV Env fusion: inhibitors of HIV-1 Env-driven cell-cell fusion, primary screen, HeLa-JRFL effector, CEM21 target cells, luciferase | AID 651610, 2012 | inhibition, % at 12.3 µM | 1.1% of 360,000 active;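 active = mean replicate inhibition score of at least 50 and every replicate individually at or above 50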;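 also: 0% = plate neutral controls and 100% = maraviroc near 300 nM; one replicate is shown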
Rce1 inhib: yeast Rce1p protease inhibitors, primary screen, biochemical, fluorescence, cell-free homogeneous | CAAX prenyl protease 2 (Saccharomyces cerevisiae (strain ATCC 204508 / S288c)), Q03530 | 0.27% of 290,000 active | calls only | yeast membranes, quenched prenylated peptide cleavage fluorescence;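 active = fall in fluorescence gain of 50% or more versus controls, with final raw signal at or below 3038400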;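 also: plate controls were neutral control wells for no effect and wells lacking membranes for full effect; tested at 10 µM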
Target sequence (Q03530 whole entry, looked up): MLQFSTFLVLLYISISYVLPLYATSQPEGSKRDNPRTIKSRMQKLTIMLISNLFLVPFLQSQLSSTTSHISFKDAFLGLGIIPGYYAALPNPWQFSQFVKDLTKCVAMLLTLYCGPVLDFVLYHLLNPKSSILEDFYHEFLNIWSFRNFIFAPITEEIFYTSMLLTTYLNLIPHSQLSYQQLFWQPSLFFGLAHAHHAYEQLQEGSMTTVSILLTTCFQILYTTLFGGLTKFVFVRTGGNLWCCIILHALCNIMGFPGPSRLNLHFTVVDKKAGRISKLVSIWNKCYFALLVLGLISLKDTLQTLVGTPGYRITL
eIF4H FP inh retest: further read-out of eIF4H FP inh, marked with its call; inhibition, %; compound at 20 µM; confirmation average;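 mean of two retest wells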
PABP FP inh retest: recorded beside PABP FP inh, whose call it bears; inhibition, %; compound at 20 µM; confirmation repeats;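 mean of two retest wells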
MT1-MMP act inh RFP: also measured in MT1-MMP act inh; calls as there; RFP signal change, %; measured here: RFP expression control read;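 0 = vehicle wells; hits needed this value within 50% of zero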
An asterisk follows results filed as active; i = inactive; x = not tested or not shown; & = joins results of further samples. A portion of the library; count on the stated rates, not on these rows.

Preview (4 entries):
SMILES	MT1-MMP act inh	MT1-MMP act inh RFP	PABP FP inh	eIF4H FP inh	CSC inhib	UUG fidelity	HIV Env fusion	Rce1 inhib	others
CC(NC(=O)c1ccccc1)C(=O)OCC(=O)c1ccc(Br)cc1 (stereo unspecified)	3.0	2.3	-11.6	-21.0	x	-9.7	-85.9	i
C1CCC(OCCN2CCN(CCOC3CCCCC3)CC2)CC1	5.2	-0.9	1.8	-2.4	42.7	-25.8	x	i
COC(=O)c1c(NC(=O)CC2SC(N)=NC2=O)sc2c1CCC(C)C2 (stereo unspecified)	-6.4	-6.6	-11.2	-13.6	9.5	x	6.9	i
O=C(O)c1ccc(NS(=O)(=O)/C=C/c2ccccc2)cc1O	-1.5	2.0	18.9	11.7	-16.9	-18.7	x	i

The whole of this part, from the first entry:
SMILES	MT1-MMP act inh	MT1-MMP act inh RFP	PABP FP inh	eIF4H FP inh	CSC inhib	UUG fidelity	HIV Env fusion	Rce1 inhib	others
CC(NC(=O)c1ccccc1)C(=O)OCC(=O)c1ccc(Br)cc1 (stereo unspecified)	3.0	2.3	-11.6	-21.0	x	-9.7	-85.9	i
C1CCC(OCCN2CCN(CCOC3CCCCC3)CC2)CC1	5.2	-0.9	1.8	-2.4	42.7	-25.8	x	i
COC(=O)c1c(NC(=O)CC2SC(N)=NC2=O)sc2c1CCC(C)C2 (stereo unspecified)	-6.4	-6.6	-11.2	-13.6	9.5	x	6.9	i
O=C(O)c1ccc(NS(=O)(=O)/C=C/c2ccccc2)cc1O	-1.5	2.0	18.9	11.7	-16.9	-18.7	x	i
C[C@@H]1CN([C@@H](C)CO)C(=O)CCCn2cc(nn2)CO[C@H]1CN(C)S(=O)(=O)c1cccs1	3.2	7.3	x	x	x	-8.4&-9.0	8.3	x
O=C(CCN1C(=O)CSC1=O)Nc1ccc(Br)cc1	0.7	4.4	-4.6	7.6	-6.8	11.0	-37.4	i
S=C(NCc1cccnc1)Nc1ccc2c(c1)OCO2	-5.3	-2.1	10.6	3.4	-9.8	-23.4	-3.9	i
O=S(=O)(Nc1ncccn1)c1ccc(NC(=S)Nc2ccccc2)cc1	1.0	0.2	12.1	-11.3	x	-20.2	-4.3	i
CCc1ccc(NC(=O)CC2C(=O)N(c3ccc(C)cc3)C(=O)N2C2CC2)cc1 (stereo unspecified)	-0.2	2.4	-1.8	-5.3	-0.4	x	7.6	i
NC(=O)c1ccsc1NC(=O)COC(=O)CNC(=O)c1cccc([N+](=O)[O-])c1	-0.3	4.3	x	x	x	-2.3	2.1	x
Nc1ccc(S(=O)(=O)c2ccc(Cl)cc2)cc1	2.4	2.4	0.7	0.7	-0.7	-15.7	-6.7	i
Cc1nc(-c2ccc(F)cc2)c(CC(=O)N(C)CC(=O)Nc2ccc(Cl)c(C(F)(F)F)c2)s1	9.0	-6.7	x	x	x	-15.9	30.5	x
CCC(=O)Nc1sc(Cc2ccccc2)c(C)c1C(N)=O	-4.9	-4.1	3.9	-2.6	x	x	1.3	i
COc1cccc(/C=C2/C(=O)NN(c3ccc(Br)cc3)C2=O)c1O	1.6	3.1	8.6	5.3	x	-3.4	5.2	i
O=C(OC1CCCCC1=O)c1cc(S(=O)(=O)N2CCOCC2)ccc1F (stereo unspecified)	-2.6	1.8	-2.5	5.8	-5.8	6.9	5.2	i
CC(=O)Nc1ccc(S(=O)(=O)N2CCC(NC(=O)C(Cc3cccn3C)NC(C)=O)CC2)cc1 (stereo unspecified)	-2.3	-14.9	1.7	4.1	x	-0.3	-139.2	x
O=C(CCn1c2c(c3ccccc31)CCCC2)NNC(=O)c1ccc(Cl)c([N+](=O)[O-])c1	2.3	-4.3	-9.5	-5.3	27.4	x	-1.6	i
O=[N+]([O-])c1ccc(N2CCN(C(=S)Nc3cccc(F)c3)CC2)cc1	-0.8	-10.6	-14.4	-3.7	-2.8	-29.6	-5.2	i
COc1ccc(C2CC(c3cccs3)=NN2C(=O)CCC(=O)O)cc1 (stereo unspecified)	-2.2	-2.1	5.6	-3.6	-12.0	-9.0	12.9	i
CCOC(=O)C1CCN(C(=O)/C=C/c2cc(OC)c(OC)c(OC)c2)CC1	3.2	5.7	-5.7	-4.5	7.3	-20.0	8.3	i
COc1cccc(CCNC(=O)CC2C(=O)NCCN2Cc2ccc(C)o2)c1 (stereo unspecified)	-1.4	1.1	x	x	-3.9	-8.4	-0.1	i
O=C(c1cccc2ccccc12)N1CCN(CC2CC=CCC2)CC1 (stereo unspecified)	6.6	2.2	14.4	-5.0	15.9	-11.7	x	i
CCN1CCCC1CNC(=O)CSc1cc(=O)n(C)c2cc(Cl)ccc12 (stereo unspecified)	0.6	1.7	2.2	0.4	-15.1	-9.4	23.2	i
CO/N=C/NC(=O)c1ccc([N+](=O)[O-])c(CS(=O)(=O)c2ccc(Cl)cc2)c1	1.4	0.4	0.5	3.4	1.1	-38.0	x	i
COc1ccc(S(=O)(=O)Nc2cccc3c2O[C@H](CN(C)S(=O)(=O)c2ccc(Cl)cc2)[C@H](C)CN([C@H](C)CO)C3=O)cc1	-1.6	-3.4	x	x	x	4.9	-5.2	x
Cc1ccc(C)c(SCC(=O)Nc2nnc(-c3ccccc3)o2)c1	5.8	-3.1	-0.5	6.4	5.5	-20.5	-27.7	i
O=C(Nc1ccc(Cl)cc1)c1cc(Br)ccc1OCC(=O)N1CCOCC1	-4.5	-5.3	4.5	-2.5	47.5	-5.6	13.6	i
CCOc1ccc(C(=O)OCC(=O)Nc2cc(C)on2)cc1OCC	0.7	-0.9	-6.0	-9.1	-10.0	-11.9	-26.3	i
CCOC(=O)c1cccc(NS(=O)(=O)c2c(C)[nH]c(C)c2C(=O)N2CCCC2)c1	-1.5	0.5	3.9	-6.0	-10.5	-10.4	0.0	i
CC(C)NC(=O)c1ccc2c3n(nc2c1)-c1ccc(Cl)cc1CO3	0.2	-1.6	5.6	4.3	2.6	-13.9	-123.8	i
CCN(CC)CCNC(=O)c1cc(S(=O)(=O)N2CCc3ccccc32)cn1C	2.3	2.0	1.5	1.5	-4.0	-12.7	-47.3	i
Cc1nnc(SCc2cc(=O)[nH]c(Nc3nc(C)c4cc(C)c(C)cc4n3)n2)s1	1.7	-9.3	-20.1	-13.0	13.1	x	5.4	i
CN1CCN(CCC(=O)N/N=C/c2cc([N+](=O)[O-])ccc2OC(F)F)CC1	4.9	3.6	-8.9	-0.5	-1.1	-7.3	3.2	i
CCN1CCN(C(=O)C2CC(c3ccc(F)cc3)=NO2)CC1 (stereo unspecified)	1.2	2.6	6.8	4.8	x	9.7	-1.5	i
COc1ccc(OC)c(S(=O)(=O)N2CCN(C)CC2)c1	1.2	6.3	-0.2	-11.0	-6.9	-15.0	-2.1	i
COc1ccc(OC)c(N(CC(=O)NCCc2ccc(OC)c(OC)c2)S(=O)(=O)c2ccccc2)c1	-2.6	-0.9	3.9	1.1	x	-1.0	8.5	i
CC1(C(=O)NS(=O)(=O)c2ccccc2OC(F)(F)F)CCN1C(=O)c1ccco1 (stereo unspecified)	3.7	4.4	x	x	x	-3.8	-4.0	x
Cn1c(=O)c2cc(S(=O)(=O)NC(C(=O)NCc3cccnc3)c3ccccc3)ccc2n(C)c1=O (stereo unspecified)	0.4	1.7	-1.4	-1.0	1.3	-23.9	-239.7	i
COc1ccc(-c2cc3ccc(OCC(C)=O)cc3oc2=O)cc1OC	4.4	-0.1	-7.3	-8.0	-6.5	0.9	-31.7	i
O=C(NCc1ccco1)c1cnn2c1NC(c1ccc(Br)cc1)CC2C(F)(F)F (stereo unspecified)	-3.9	-3.2	-8.0	-13.1	4.9	1.2	x	i
CCc1cc(=O)oc2cc(OC3CCCCC3=O)ccc12 (stereo unspecified)	1.9	-2.3	-5.1	-1.8	-6.1	-8.9	10.6	i
Cc1ccc2c(c1)-c1c(ssc1=S)C(C)(C)N2C(=O)CSc1nncn1C	-2.4	-6.0	55.5*	2.4*	8.7	-20.4	x	i	eIF4H FP inh retest=97.0*;PABP FP inh retest=95.9*
O=S(=O)(NC1CC2CCC1C2)c1ccc(Br)s1 (stereo unspecified)	-1.2	0.1	5.0	-3.9	-5.3	-11.8	x	i
COc1ccc(NC(=S)N/N=C/c2ccc(F)cc2)cc1OC	2.0	1.2	-6.8	-6.3	-2.5	x	-9.4	i
CCC(=O)NC(NCC1CCCO1)C(Cl)(Cl)Cl (stereo unspecified)	0.5	2.2	-4.4	-4.2	-0.9	-10.4	x	i
O=C(Oc1ccc(Br)cc1C(=S)N1CCCC1)c1ccccc1Cl	2.0	1.8	1.8	-4.3	x	-22.6	x	i
CCN1CCN(CCCNC(=O)c2ccc3c(c2)NC(=O)/C(=C\c2cccc(C)c2)S3)CC1	2.0	-2.4	-16.1	-3.6	121.1*	-12.6	11.8	i
COCCCNC(=O)Cc1ccc(-n2c(C)nc3cccnc32)cc1	x	x	36.0	63.6	-6.4	-14.6	-15.8	i	eIF4H FP inh retest=13.7;PABP FP inh retest=12.0
O=C(Nc1ccccc1)c1ccc(OC(=O)c2cc3ccccc3o2)cc1	2.9	5.4	4.4	3.7	-7.8	-16.9	-69.0	i
O=C1c2ccccc2CN1Cc1ccccc1	-1.2	3.7	-3.6	-10.1	-1.9	-3.8	17.5	i
COC(=O)c1cc(OC)c(OC)cc1N1C(=O)CC(C)(C)CC1=O	0.1	1.4	1.8	3.3	-16.8	8.1	x	i
Cc1ccc(S(=O)(=O)CCC(=O)NCc2ccccc2F)cc1	2.1	3.6	x	x	-12.0	-17.6	-6.0	i
CCOC(=O)c1ccc2nc(NC(=O)c3cccs3)sc2c1	-1.4	-7.2	-6.7	-14.1	-4.5	-21.6	x	i
COc1cc2c(cc1OC)CN(C(=O)c1ccc([N+](=O)[O-])o1)CC2	-0.6	-4.0	8.6	2.7	-2.3	x	6.4	i
CCOC(=O)/C(C)=N/Nc1nc(-c2ccc(NC(C)=O)cc2)cs1	6.5	-2.4	7.3	-1.0	9.5	-8.2	11.5	i
CCOc1ccc(NC(=O)CCN2C(=O)c3cccc([N+](=O)[O-])c3C2=O)cc1	2.6	6.8	-3.4	2.6	-18.9	-11.8	2.9	i
CCOC(=O)CNC(=O)CSc1ncnc2c1cnn2Cc1ccccc1	7.0	-2.6	27.8	-12.8	10.0	-9.1	x	i
Cc1ccc(NC(=O)C/C(N)=N/O)cc1Cl	0.2	2.9	11.9	-3.1	-2.4	x	-3.8	i
NCC(=O)NCC(=O)NC[C@H]1O[C@@H](n2cnc3c(N)ncnc32)[C@H](O)[C@@H]1O	-0.3	3.5	x	x	x	-14.5	21.1	x
N#CC(C#N)=Cc1cc2ccccc2nc1N1CCOCC1	1.4	5.5	6.1	12.1	-8.5	-13.9	-11.6	i
CC(=O)Nc1ccc(NC(=O)C(=O)NCC(c2ccco2)N2CCc3ccccc3C2)cc1 (stereo unspecified)	-0.8	-0.4	x	x	-3.7	11.3	-32.1	i
N#Cc1ccc(-c2csc(NC(=O)C3CC3)n2)cc1	1.4	-7.2	15.2	1.1	16.8	-10.8	-35.8	i
